Screening data (PubChem BioAssay)
Rango release inh: inhibition of RanGTP-driven Rango-importin beta dissociation; O95149+P62826; Biochemical FRET Rango-importin beta, RanGTP-induced dissociation; Potency, µM (doses to about 46.1 µM), for inactives: at the top dose activity change, negative = inhibition; actives 0.071% (n = 340,000); active means falling FRET ratio curve, often poorly fitted, with flat reads before Ran was added; inconclusive means other falling curves, or compound fluorescence or quenching; inactive means flat or rising ratio curve;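 further: potency means the concentration at half of the fitted maximal effect; % of control where 0% means no effect; nearly all actives have a fitted effect of over 45% in size; -100% = wells without RanGTP and RCC1; the record marks most hits as doubtful in a second field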
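Quantitative HTS using a FRET biosensor: 0.1 uM Rango, 0.25 uM importin beta, 0.6 uM Ran, 2 mM GTP, 0.2 uM RCC1 final, PBS with DTT, Tween-20 and BSA. Post-read taken 45 min after Ran addition.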
miR-21 FLuc: miR-21 reporter, rising signal; HeLa miR-21 FLuc reporter, luciferase, 48 h; Potency, µM (top dose mostly 38.3 µM), without a hit: top-dose reporter change, positive = more light; 340,000 tested, under 10 active; active = well fitted rising curve with a large enough effect; inconclusive = small, poorly fitted or top-dose-only effect; inactive = no such curve, though single readings can be large or run the other way;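 further: % of control where 0% means no effect; miR-21 action dims this reporter so a rising signal means less miR-21 action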
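HeLa miR-21-FLuc reporter line, endogenous miR-21; 2000 cells/well in DMEM/10% FBS; compound titration up to ~40uM final, 48 h, 37 degree Celsius; luciferase detection reagent, 15 min lysis, CCD luminescence.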
Rango complex inh: prevents formation of the Rango-importin beta complex; actives 0.031% (n = 340,000); Rango CFP/YFP FRET sensor + importin beta, 45 min; Potency, µM (highest dose often 92.2 µM), for the others: at the top dose inhibition of complex formation; AID 540263; Q14974; active = rising FRET ratio curve, often small or poorly fitted; inconclusive = mostly compound fluorescence or quenching in the first reads; inactive = flat curves in all reads;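 further: potency means the concentration at half of the fitted maximal effect; 0% = DMSO wells and 100% = buffer wells lacking importin beta; nearly all actives have a fitted effect of over 15% in size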
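FRET biosensor Rango (snurportin 1 IBB between N-terminal EYFP and C-terminal Cerulean), 50 nM in PBS/1 mM DTT/0.02% Tween-20/0.1% BSA, preincubated 5 min RT with compound; 0.125 microM importin beta added, 45 min RT, CFP/YFP FRET ratio read.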
GLA inh pH 4.5: alpha-galactosidase A (human) inhibition, pH 4.5; 230,000 tested, under 10 active; purified enzyme, 4-MU-alpha-Gal fluorescence, pH 4.5; AID 1467; activity change, negative = inhibition, % at 105 µM; inconclusive = small, poorly fitted or top-dose-only inhibition, or a rising curve; inactive = flat fitted curve, though single readings scatter; no compound was filed as active;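 further: 0% = full activity with enzyme and -100% = basal without enzyme; dose as in the result columns while the protocol names 77 µM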
Target sequence (P06280 whole entry, looked up): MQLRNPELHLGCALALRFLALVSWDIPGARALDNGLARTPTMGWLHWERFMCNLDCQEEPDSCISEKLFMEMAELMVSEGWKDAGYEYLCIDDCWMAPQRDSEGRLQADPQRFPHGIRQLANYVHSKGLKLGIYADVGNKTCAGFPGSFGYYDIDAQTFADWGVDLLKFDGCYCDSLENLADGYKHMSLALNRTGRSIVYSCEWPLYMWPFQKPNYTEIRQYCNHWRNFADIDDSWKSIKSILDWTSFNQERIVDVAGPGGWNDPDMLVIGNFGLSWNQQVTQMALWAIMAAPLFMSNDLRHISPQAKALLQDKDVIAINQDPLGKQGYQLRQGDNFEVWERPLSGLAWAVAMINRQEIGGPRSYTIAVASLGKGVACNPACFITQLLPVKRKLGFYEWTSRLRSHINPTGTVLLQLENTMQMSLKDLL
Active calls of the source: *. These rows are one share of the data; count on the stated rates, not on these rows.

For CCCNC(=S)NC1CC2CCCC(C1)N2CC(C)C (stereo unspecified) the results were Rango release inh 5%, miR-21 FLuc -3%, Rango complex inh 0.2% and GLA inh pH 4.5 3.
For NC(=O)c1c(N)sc2c1CCCCC2 the results were Rango release inh -11%, miR-21 FLuc -15%, Rango complex inh 0.1% and GLA inh pH 4.5 6.
For O=C(N/N=C/c1ccncc1)c1cccc(N/N=C/c2ccncc2)c1 the results were Rango release inh -1%, miR-21 FLuc -26%, Rango complex inh -2.6% and GLA inh pH 4.5 -5.
Screening CN(C)c1cc[n+](CC(=O)Nc2ccc([N+](=O)[O-])cc2Cl)cc1 returned Rango release inh 3%, miR-21 FLuc 20%, Rango complex inh 5.3% and GLA inh pH 4.5 -2.
`C=CCn1c(CCNC(=O)c2ccccc2F)nnc1SCC(=O)Nc1nc2ccccc2s1` gave Rango release inh -6%, miR-21 FLuc 0%, Rango complex inh 4.1% and GLA inh pH 4.5 7.
COc1ccccc1NC(=O)C1=C(C)Nc2ncnn2C1c1ccc(C)o1 (stereo unspecified) was read as Rango release inh 0%, miR-21 FLuc -15%, Rango complex inh 0.4% and GLA inh pH 4.5 -3.
For N#C/C(=C(/O)Cc1ccccc1)P(=O)(c1ccccc1)c1ccccc1 the results were Rango release inh -12%, miR-21 FLuc 4%, Rango complex inh -1.0% and GLA inh pH 4.5 2.
`Cc1ccc(-n2c(C)nnc2SCC(=O)NNC(=O)c2ccco2)cc1` gave Rango release inh 7%, miR-21 FLuc -2%, Rango complex inh -1.0% and GLA inh pH 4.5 5.
For C=CCC1(O)C(=O)N2C(=C1C(=O)N1CCOCC1)c1ccccc1CC2(C)C (stereo unspecified) the results were Rango release inh -14%, miR-21 FLuc 1% and Rango complex inh -3.9%.
`Cc1ccccc1OCCOC(=O)c1cc(S(=O)(=O)N2CCCCC2)ccc1N1CCOCC1` gave Rango release inh 43% and Rango complex inh 0.3%.
`CCOc1ccc2[nH]c(=O)c(CN(Cc3ccccc3)C(=O)N3CCCC3)cc2c1` gave Rango release inh 6%, miR-21 FLuc -3%, Rango complex inh -1.6% and GLA inh pH 4.5 1.
Cc1ccc(SC2=C(C(=O)O)CCCC2)cc1 was read as Rango release inh -23%, miR-21 FLuc 0% and Rango complex inh 0.6%.
`CC(C)=CCN1CCN(Cc2c(C)nn(C)c2Cl)CC1CCO` (stereo unspecified) gave Rango release inh -11%, miR-21 FLuc -1%, Rango complex inh 2.6% and GLA inh pH 4.5 8.
`CCN(CC(=O)Nc1ccc2c(c1)OCCO2)CC(=O)Nc1cc(C)on1` gave Rango release inh 0%, miR-21 FLuc -9%, Rango complex inh 0.6% and GLA inh pH 4.5 -4.
Screening CCOC(=O)N/N=C/c1cn(Cc2ccc(Cl)cc2)c2ccccc12 returned Rango release inh 13%, miR-21 FLuc 7%, Rango complex inh 1.9% and GLA inh pH 4.5 -10.
O=S(=O)(NCc1ccc2c(c1)OCO2)c1c(F)cc(F)cc1Br was read as Rango release inh 3%, miR-21 FLuc -3% and Rango complex inh inconclusive.
For Cc1cc(C)cc(NC(=S)NCCCN2CCOCC2)c1 the results were Rango release inh -3%, miR-21 FLuc 0%, Rango complex inh 1.2% and GLA inh pH 4.5 1.
Screening O=C(O)c1ccc2c(c1)nnn2C1CCCCC1 returned Rango release inh -19%, miR-21 FLuc -3%, Rango complex inh 3.4% and GLA inh pH 4.5 -2.
For Clc1ccc(Cl)c(-c2nc(-c3ccncc3)no2)c1 the results were Rango release inh 0%, miR-21 FLuc -5% and Rango complex inh -0.2%.
Screening CCc1nc2ccc(C(=O)N3CCN(CC)CC3)cc2nc1CC returned Rango release inh 6%, miR-21 FLuc -6% and Rango complex inh 3.4%.
For Cc1nc2c(C)cccc2cc1C(=O)N/N=C/c1ccc(C(=O)O)cc1 the results were Rango release inh 13%, miR-21 FLuc 3%, Rango complex inh inconclusive and GLA inh pH 4.5 6.
Screening O=C(CCC1CCCC1)N1CCN(C(=O)c2ccco2)CC1 returned Rango release inh 1%, miR-21 FLuc -14%, Rango complex inh 0.3% and GLA inh pH 4.5 7.
CC(=O)N=c1sc2c3ccccc3ccc2n1C was read as Rango release inh 0%, miR-21 FLuc -4%, Rango complex inh 0.9% and GLA inh pH 4.5 7.
For COc1ccc(-c2nnco2)cc1OC the results were Rango release inh -7%, miR-21 FLuc -6%, Rango complex inh 2.3% and GLA inh pH 4.5 1.
For Cc1[nH]c2ccccc2c1/C=N/NC(=O)c1cc(-c2cccs2)[nH]n1 the results were Rango release inh -13%, miR-21 FLuc -8%, Rango complex inh 4.8% and GLA inh pH 4.5 1.
Screening CN(C)CCn1nnc2c(=O)oc3ccccc3c21 returned Rango release inh -10%, miR-21 FLuc 2%, Rango complex inh 0.4% and GLA inh pH 4.5 7.
For Cc1cccc(OCC(=O)Nc2nonc2NC(=O)COc2cccc(C)c2)c1 the results were Rango release inh 0% and Rango complex inh -2.4%.
Cc1c(C)n(C(=O)CSc2nncn2C)c2ccccc12 was read as Rango release inh -13%, miR-21 FLuc 0%, Rango complex inh -0.2% and GLA inh pH 4.5 5.
`COc1ccc2cc(-c3csc(-c4cccnc4)n3)ccc2c1` gave Rango release inh 1%, miR-21 FLuc -61%, Rango complex inh -0.2% and GLA inh pH 4.5 3.
COc1cccc(NC(=O)CN(C)C(=O)c2cc3c(s2)CCC(C)C3)c1 (stereo unspecified) was read as Rango release inh -14% and Rango complex inh -2.9%.

Quoted at random: four entries already listed, in no set order.
For Cc1nc2c(C)cccc2cc1C(=O)N/N=C/c1ccc(C(=O)O)cc1 the results were Rango release inh 13%, miR-21 FLuc 3%, Rango complex inh inconclusive and GLA inh pH 4.5 6.
Screening CCc1nc2ccc(C(=O)N3CCN(CC)CC3)cc2nc1CC returned Rango release inh 6%, miR-21 FLuc -6% and Rango complex inh 3.4%.
Screening O=C(O)c1ccc2c(c1)nnn2C1CCCCC1 returned Rango release inh -19%, miR-21 FLuc -3%, Rango complex inh 3.4% and GLA inh pH 4.5 -2.
COc1cccc(NC(=O)CN(C)C(=O)c2cc3c(s2)CCC(C)C3)c1 (stereo unspecified) was read as Rango release inh -14% and Rango complex inh -2.9%.

The results go on:
Screening CCNC(=O)C(=O)c1c(-c2ccccc2)[nH]c2ccccc12 returned Rango release inh 22%, miR-21 FLuc -2%, Rango complex inh -1.9% and GLA inh pH 4.5 -9.
Screening O=C(NCCOc1ccccc1)c1ccc2c(c1)OCO2 returned Rango release inh 0%, miR-21 FLuc 19%, Rango complex inh -5.1% and GLA inh pH 4.5 0.
Screening O=C1CCCN2N=C(SCC(=O)Nc3cccc(F)c3)SC2=N1 returned Rango release inh -1%, miR-21 FLuc 6% and Rango complex inh -2.9%.
Screening COc1ccc(N2CCN(C(=O)COC(=O)c3ccc(Cl)nc3)CC2)cc1 returned Rango release inh -13% and Rango complex inh 0.1%.
O=C(COC(=O)c1cc(Cl)cc(Cl)c1)NCCN1C(=O)CSC1=O was read as Rango release inh 12%, miR-21 FLuc -4%, Rango complex inh -0.3% and GLA inh pH 4.5 5.
For Cc1nc2ccccc2nc1OCc1ccc([N+](=O)[O-])cc1 the results were Rango release inh -6%, miR-21 FLuc -19%, Rango complex inh -1.0% and GLA inh pH 4.5 -6.
Screening COc1cccc(NC(=O)NC(=O)c2c(C)cc(Cl)nc2Cl)c1 returned Rango release inh 9%, miR-21 FLuc -3% and Rango complex inh -1.0%.
For CC(=O)n1nc(-c2ccccc2)nc1NCc1cccs1 the results were Rango release inh 4%, miR-21 FLuc -52%, Rango complex inh -1.1% and GLA inh pH 4.5 3.
`COc1ccc(CNC(=O)/C=C/c2ccc(S(=O)(=O)N3CCOCC3)cc2)cc1` gave Rango release inh 38%, miR-21 FLuc 0%, Rango complex inh 5.4% and GLA inh pH 4.5 8.
For CCOc1ccccc1N1CCN(C(=O)CCCN2C(=O)c3cccc4cccc(c34)C2=O)CC1 the results were Rango release inh 9%, miR-21 FLuc 11%, Rango complex inh -0.3% and GLA inh pH 4.5 2.
CN1CCN(CC(=O)N2CCn3c4c(c5cc(C6CCCCC6)ccc53)CCCC42)CC1 (stereo unspecified) was read as Rango release inh -5%, miR-21 FLuc inconclusive, Rango complex inh inconclusive and GLA inh pH 4.5 -9.
`C=CCN1C(=O)N(c2ccc(F)cc2)C(=O)C1CC(=O)Nc1ccc(Cl)cc1` (stereo unspecified) gave Rango release inh -4%, miR-21 FLuc 0%, Rango complex inh -0.4% and GLA inh pH 4.5 -21.
`Clc1ccc(OCCCCCN2CCCC2)c(Br)c1` gave Rango release inh 0%, miR-21 FLuc -14%, Rango complex inh 1.3% and GLA inh pH 4.5 11.
Screening Cc1cc(OCC(=O)OCC(=O)NCc2cccs2)ccc1Cl returned Rango release inh -11% and Rango complex inh 2.6%.
For COCc1cc(=O)[nH]c(SCCS(=O)(=O)c2ccc(Cl)cc2Cl)n1 the results were Rango release inh 2%, miR-21 FLuc -2%, Rango complex inh -1.6% and GLA inh pH 4.5 0.
For O=C(N/N=C\c1ccc(OC(=O)c2cccs2)cc1)c1ccc(Cl)cc1 the results were Rango release inh 4%, miR-21 FLuc -2%, Rango complex inh 3.2% and GLA inh pH 4.5 3.
COc1cc2c(ccc3cc(OC)c(OC)c(O)c32)cc1O was read as Rango release inh -7%, miR-21 FLuc inconclusive, Rango complex inh 1.6% and GLA inh pH 4.5 3.
Screening Cc1c(C(=O)N2CCCCC2)nnn1-c1nonc1N returned Rango release inh -4%, miR-21 FLuc -4%, Rango complex inh -2.2% and GLA inh pH 4.5 7.
Screening CC(=O)Nc1nc2ccccc2n1Cc1ccccc1C returned Rango release inh 24%, miR-21 FLuc 17%, Rango complex inh -2.0% and GLA inh pH 4.5 4.
Screening CC(=O)O[C@H]1CSC[C@H]1NC(=O)c1ccccc1 returned Rango release inh 12%, miR-21 FLuc -10%, Rango complex inh -4.1% and GLA inh pH 4.5 1.
`CCC12CN3CCN(CC(C3)/C1=N\NC(=O)c1ccc(F)cc1)C2` gave Rango release inh 3%, miR-21 FLuc -16%, Rango complex inh 0.9% and GLA inh pH 4.5 0.
Screening O=c1c2cc(N3CCOCC3)ccc2[nH]c(=S)n1CC1CCCO1 (stereo unspecified) returned Rango release inh inconclusive, miR-21 FLuc -20%, Rango complex inh inconclusive and GLA inh pH 4.5 -12.
Screening S=C(Nc1ccc(Cl)cc1Cl)Nc1ccccc1Oc1ccccc1 returned Rango release inh 10%, miR-21 FLuc -5%, Rango complex inh 3.5% and GLA inh pH 4.5 7.
For O=C(COc1coc(CN2CCN(c3ccccc3F)CC2)cc1=O)N1CCc2ccccc21 the results were Rango release inh -6% and Rango complex inh -0.5%.
CC(Sc1ncccn1)C(=O)NC1CCCC1 (stereo unspecified) was read as Rango release inh -3% and Rango complex inh 3.2%.
For Cc1ccccc1NC(=O)Cc1nc(COC(=O)c2cc(Cl)ccc2O)cs1 the results were Rango release inh 0%, miR-21 FLuc -1% and Rango complex inh -0.4%.
NNC(=O)COc1ccccc1F was read as Rango release inh 3%, miR-21 FLuc -8%, Rango complex inh -0.2% and GLA inh pH 4.5 -3.
`O=C(Nc1cccnc1)C12CC3CC(CC(C3)C1)C2` gave Rango release inh 1%, miR-21 FLuc -11%, Rango complex inh 0.3% and GLA inh pH 4.5 0.
For O=C(CN1C(=O)c2ccccc2C1=O)OCC(=O)c1ccc(F)cc1 the results were Rango release inh 6% and Rango complex inh -4.7%.
S=C(NCc1ccco1)N1CCN(c2ccc(Cl)cc2)CC1 was read as Rango release inh 14%, miR-21 FLuc 5%, Rango complex inh 2.2% and GLA inh pH 4.5 -1.
`CC(=O)c1cccc(NC(=O)N2CCCC2C(=O)Nc2cccc(C)c2)c1` (stereo unspecified) gave Rango release inh 22%, miR-21 FLuc -4%, Rango complex inh 1.9% and GLA inh pH 4.5 -1.
Cc1nc2ccc(S(=O)(=O)NCC(=O)NC(C)c3ccccc3)cc2s1 (stereo unspecified) was read as Rango release inh 7%, miR-21 FLuc -4%, Rango complex inh -4.4% and GLA inh pH 4.5 -14.
O=C(NN1C(=O)C2CCCCC2C1=O)c1ccco1 (stereo unspecified) was read as Rango release inh -12%, miR-21 FLuc 1%, Rango complex inh 1.0% and GLA inh pH 4.5 5.
